Compound activity (PubChem)
STK33 kinase inh – inhibitors of purified STK33 kinase, primary screen, biochemical, ADP-Glo luminescence, homogeneous, cell-free; Serine/threonine-protein kinase 33 (Homo sapiens), Q9BYT3; MBP phosphorylation; inhibition, % at 10 µM; 0.073% of 320,000 active; AID 2661, 2010;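 active = inhibition at or above 25%, using the most active replicate where run in duplicate; inactive = inhibition below 25%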
Target sequence (Q9BYT3 whole entry, looked up): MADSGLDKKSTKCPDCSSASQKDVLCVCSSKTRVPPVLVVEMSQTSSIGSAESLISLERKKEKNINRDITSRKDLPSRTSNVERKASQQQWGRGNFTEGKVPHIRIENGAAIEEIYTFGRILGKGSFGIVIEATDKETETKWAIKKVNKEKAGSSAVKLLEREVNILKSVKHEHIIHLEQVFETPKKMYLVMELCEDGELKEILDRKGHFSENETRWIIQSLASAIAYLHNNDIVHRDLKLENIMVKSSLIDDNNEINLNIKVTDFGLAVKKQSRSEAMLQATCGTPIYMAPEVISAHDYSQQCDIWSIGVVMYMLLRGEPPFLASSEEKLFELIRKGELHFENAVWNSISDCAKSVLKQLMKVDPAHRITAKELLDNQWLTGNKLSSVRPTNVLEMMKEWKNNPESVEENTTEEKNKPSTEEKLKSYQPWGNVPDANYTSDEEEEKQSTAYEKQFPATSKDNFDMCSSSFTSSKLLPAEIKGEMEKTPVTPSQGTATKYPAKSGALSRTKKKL
* marks the source's active call; other numbers are inactive results. This is a subset, and most or all hits are left out here.

structure | STK33 kinase inh
CC(C)OCCCn1c(=NC(=O)c2cccs2)c(C#N)cc2c(=O)n3ccccc3nc21 | -0.6
CCOc1cc(C(N)=O)cc(Br)c1OC | -1.3
COC(=O)c1cccc(NC(=O)c2ccc[n+]([O-])c2)c1 | -3.2
CC(=O)Nc1ccc(S(=O)(=O)N2CCC(C(=O)NC3CCCC3)CC2)cc1 | -1.0
Cc1nc(N2CCN(c3ccccn3)CC2)c2c(C)c(C(=O)Nc3ccc(Cl)cc3)sc2n1 | 0.0
O=C(NC(=O)c1ccncc1)NC(c1ccccc1)c1ccccc1 | 0.1
O=C(c1ccc(Cn2c(=O)[nH]c3ccsc3c2=O)cc1)N1CCN(c2ccccc2)CC1 | -1.4
COc1ccc(C(=O)c2c(-c3ccsc3)oc3ccc(-c4ccc(OC)cc4)cc23)cc1 | 1.9
CCc1cccc(C)c1NC(=S)N(CCOC)C(C)c1ccco1 (configuration not stated) | -1.5
N#CCCN(C1CCCCC1)S(=O)(=O)CCOc1ccccc1 | -1.0
CCCOc1ccc(/C=C2/C(=O)ON=C2C)cc1Cl | -0.5
COc1cc2c(cc1OC)CN(Cc1ccc(C)cc1)CC2 | -0.2
Cc1ccc(C(NC(=O)N2CCCCC2)=C(Cl)Cl)cc1F | -2.7
C=CCc1cccc2cc(NC(C)=O)c(=O)oc12 | -2.0
CN(C)c1ccc(C=Nc2ccccc2)cc1 | -2.2
CC(C)(C)n1nnnc1C(c1ccccc1F)N(Cc1ccco1)CC1CCCO1 (configuration not stated) | 1.5
CCc1cccc(NC(=O)COC(=O)c2cc([N+](=O)[O-])ccc2N2CCOCC2)c1 | -1.2
CCOC(=O)c1[nH]ncc1CN1CCCC(C(=O)c2cccc(OC(C)C)c2)C1 (configuration not stated) | -0.7
COc1cc(OC)cc(C(=O)N[C@@H](CCSC)c2nc3ccccc3[nH]2)c1 | -1.8
N#CC12CCCCC1CC1CCCCC1(C#N)N2Cc1ccccn1 (configuration not stated) | 2.6
CCOc1ccc(S(=O)(=O)N(C(=O)c2ccco2)c2cc3sc(=O)oc3c3ccccc23)cc1 | 0.9
COc1ccc2c(-c3cc4ccc(OCc5ccc(F)cc5)cc4oc3=O)cc(=O)oc2c1 | 1.4
O=S(=O)(Nc1cccc2nsnc12)c1ccccc1 | -1.8
O=C(COc1ccc2c3c(c(=O)oc2c1)CCCC3)NCCN1CCOCC1 | -0.3
CC(C)(C)C1CCc2[nH]nc(C(=O)O)c2C1 (configuration not stated) | 0.8

3 compounds from above, ordered by the number in STK33 kinase inh, high to low.
structure | STK33 kinase inh
COc1ccc(C(=O)c2c(-c3ccsc3)oc3ccc(-c4ccc(OC)cc4)cc23)cc1 | 1.9
CCOc1cc(C(N)=O)cc(Br)c1OC | -1.3
Cc1ccc(C(NC(=O)N2CCCCC2)=C(Cl)Cl)cc1F | -2.7

Other records follow.
structure | STK33 kinase inh
CCN1C(=O)N[C@H](c2ccc(Br)cc2)C(C(C)=O)=C1C | 0.1
COC(=O)c1ccc(C2N=C(c3cccs3)CC(c3ccccc3O)N2)cc1 (configuration not stated) | -0.2
O=C(Cc1c(F)cccc1Cl)Nc1ccc(S(=O)(=O)N2CCCC2)cc1 | -0.7
O=c1cc(CO)oc(C(Nc2ccccn2)c2cccc(F)c2)c1O (configuration not stated) | -0.9
CCn1cc(/C=C(\NC(=O)c2ccc(OC)c(OC)c2)C(=O)N2CCN(C)CC2)c2ccccc21 | -0.7
O=C(NC(=S)NCCC1=CCCCC1)c1ccc(Br)o1 | 5.2
O=c1c(Cc2c(F)cccc2Cl)c(O)ccn1Cc1ccc2c(c1)OCO2 | -0.7
COCCN(C(=O)COC(=O)/C=C/c1ccc(C(F)(F)F)cc1)c1c(N)n(Cc2ccccc2)c(=O)[nH]c1=O | -0.8
COc1ccc(C/C(N)=N/n2cnnc2)cc1 | -1.1
O=C1Nc2ccccc2N=C(c2ccccc2)C1N1CCOCC1 (configuration not stated) | -0.5
C/C(=N\NC(=O)c1ccccc1F)c1cccc(NC(=O)c2ccc(C)cc2)c1 | -0.9
CN(C)C(=O)c1cccn1-c1ncc(C(F)(F)F)cc1Cl | -1.8
CCN(c1ccccc1)S(=O)(=O)c1ccc(C(=O)Nc2ncccc2C)cc1 | 0.2
O=C(CCS(=O)(=O)Cc1ccccc1)Nc1nncs1 | -1.6
COc1ccc(-c2nc(CS(=O)(=O)CC(=O)NCCCc3ccccc3)c(C)o2)cc1 | 0.1
CC1(c2ccc(C#N)cc2)NC(=O)N(CC(=O)Nc2cc(S(=O)(=O)N3CCOCC3)ccc2Cl)C1=O (configuration not stated) | -1.3
O=C(N/N=C/C=C\c1ccccc1[N+](=O)[O-])c1cccs1 | 1.5
COc1ccccc1C(=O)Nc1nnc(SCC(=O)NCc2ccco2)s1 | 0.1
O=C(NC(=S)Nc1cccc(O)c1)c1cncc(Br)c1 | 2.0
O=C(NCC(=O)N1CCN(c2ccccc2O)CC1)c1ccc2ccccc2c1 | -0.2
CC(C)N(C(=O)CN1C(=O)NC(c2ccccc2)(c2ccccc2)C1=O)C(C)C | 0.5
Cc1ccsc1C(=O)OCC(=O)Nc1cccc(S(=O)(=O)N2CCOCC2)c1 | -0.7
CN(C)c1ccc(NC(=O)CN2CCC(O)(c3ccccc3)CC2)cc1 | 5.3
CC(=O)c1csc(-c2cccc(-c3nc4ccc(Cl)cn4c3NC3CCCCC3)c2)c1 | -1.6
N/C(=N\S(=O)(=O)c1cc(C(F)(F)F)cc(C(F)(F)F)c1)c1ccncc1 | 0.5
CCOC(=O)[C@@H]1[C@H]2COc3cc(OC)ccc3[C@H]2N2C(=O)N(c3ccc(C)cc3)C(=O)[C@@]12C | 1.0
Cc1nnc(NC(=O)CCCN2C(=O)c3ccccc3C2=O)s1 | -0.8
C/C(=N\Nc1nc(C(=O)O)cs1)c1ccccc1 | -2.1
Cc1cc(C)cc(N(C(=O)c2ccco2)C(C(=O)NC2CCCC2)c2ccncc2)c1 (configuration not stated) | -0.5
CCOCCn1ccc2c(OCC(=O)NCc3ccccc3)cccc2c1=O | -0.4
COc1ccc(-c2cc(C(=O)N/N=C/c3ccc(OC)c(COCC(F)(F)C(F)F)c3)c3ccccc3n2)c(OC)c1 | -0.2
CCN1C(=O)/C(=C2\SC(N3CCCCC3)=NC2=O)c2ccccc21 | 0.4
On1c(-c2ccccc2)nc2ccccc21 | 0.0
Cc1ccccc1NC(=O)Cn1c(=O)sc2ccccc21 | -0.8
CN1C[C@@H]2C(c3ccccc3)C3(c4cccnc4)CC2(C3)[C@H]1c1ccccc1 (some centres not stated) | -0.4
CCCc1nnc(NC(=S)Nc2ccccc2)s1 | -1.2
COc1ccc(/C=C2\C(=O)NCC(=O)N2Cc2ccccc2)cc1 | 0.8
CC(=O)Nc1ccc(NC(=O)CN(c2ccc(F)cc2)S(=O)(=O)c2ccc3c(c2)OCCO3)cc1 | -0.4
CC(O)[C@H]1CNC(=S)N1CCc1cccc(F)c1 (some centres not stated) | 2.9
O=C(NC(Cc1ccccc1)C(=O)O)/C(=C/c1ccc([N+](=O)[O-])cc1)NC(=O)c1ccc(Br)o1 (configuration not stated) | 0.2
CC12CCC(C(=O)Nc3cccc4ccccc34)(C1Br)C2(C)C (configuration not stated) | 0.4
COc1cc(C)c(S(=O)(=O)N2CCCC2)cc1C | -0.4
Cc1cc(C)c(S(=O)(=O)N(CC(=O)NCc2cccnc2)C2CCCCC2)c(C)c1 | 1.3
CCOC(=O)c1cn(-c2c(Cl)cccc2Cl)c2cc(Cl)c([N+](=O)[O-])cc2c1=O | -1.1
O=C(NCCc1ccccc1)C(=O)NCc1ccncc1 | -2.5
C=C1CCN([C@H](C(=O)NCc2ccccc2)C(C)C)S(=O)(=O)c2ccccc21 | -3.2
Cc1cccc(NC(=S)NNC(=O)c2sccc2C)c1 | -0.5
COc1ccc(CC(=O)Oc2ccccc2[N+](=O)[O-])cc1 | -0.9
Cc1cccn2cc(-c3ccc(S(=O)(=O)N4CCOCC4)cc3)nc12 | -1.2
Cc1ccc(C(=O)N2CCN(Cc3ccc4c(c3)OCO4)CC2)c(Cl)c1 | -0.6

Already shown: an excerpt of the list.
structure | STK33 kinase inh
O=C(NCCc1ccccc1)C(=O)NCc1ccncc1 | -2.5
C=C1CCN([C@H](C(=O)NCc2ccccc2)C(C)C)S(=O)(=O)c2ccccc21 | -3.2
Cc1cccc(NC(=S)NNC(=O)c2sccc2C)c1 | -0.5
COc1ccc(CC(=O)Oc2ccccc2[N+](=O)[O-])cc1 | -0.9
Cc1cccn2cc(-c3ccc(S(=O)(=O)N4CCOCC4)cc3)nc12 | -1.2
Cc1ccc(C(=O)N2CCN(Cc3ccc4c(c3)OCO4)CC2)c(Cl)c1 | -0.6

(next part)
structure | STK33 kinase inh
Cn1c(CN2CCOCC2)nc2cc(NC(=O)COc3ccc([N+](=O)[O-])cc3)ccc21 | -0.4
Cc1cc(N2CCN(S(=O)(=O)c3ccc4c(c3)OCCO4)CC2)n2ncnc2n1 | -1.3
COc1ccc(OC)c(NC(=O)CN(Cc2ccc(Cl)cc2)S(C)(=O)=O)c1 | 2.3
Cc1cccc(C(C)C)c1NC(=O)C(C)OC(=O)Cn1cnc2c1c(=O)n(C)c(=O)n2C (configuration not stated) | -1.1
O=C(NC1CC(=O)N(c2ccccc2)C1)C1CC1 (configuration not stated) | -0.7
N=C1C(c2ccccc2)=C(O)C2CCc3ccccc3N12 (configuration not stated) | 2.1
COCCn1c(=S)[nH]c2cc(C(=O)N3CCC(C(N)=O)(N4CCCCC4)CC3)ccc2c1=O | 0.2
CCCCNc1ccc(C(=O)O)cc1 | 1.6
Cc1ccc(-c2n[nH]c(=S)n2/N=C/c2ccc(C(=O)O)cc2)cc1 | 0.8
CCCCC(NS(=O)(=O)c1ccc(OC)cc1)C(=O)O (configuration not stated) | -0.5
CC(=O)Nc1nonc1-c1ccccc1 | 0.3
CCN(C(=O)CN1CCN(S(=O)(=O)c2cc(Cl)ccc2Cl)CC1)c1c(N)n(Cc2ccccc2)c(=O)[nH]c1=O | -2.1
COCCCn1c(SCC(=O)NC2CCCCC2)nnc1-c1ccco1 | -0.2
O=C1CCCC2=C1C(c1ccccn1)Nc1ccc(C(=O)c3ccccc3)cc1N2 (configuration not stated) | -3.4
O=C(Nc1ccc(C(=O)N2CCCC2)cc1)c1ccc(F)cc1Cl | 1.1
CC1CC(C)CN(C(=O)CCNS(=O)(=O)c2cccs2)C1 (configuration not stated) | -1.1
CN(C(=O)COC(=O)c1ccc([N+](=O)[O-])cc1)c1ccccc1 | -1.6
COc1cc(CNC2CCCc3ccccc32)cc(OC)c1OC (configuration not stated) | -1.4
O=C(OCC(=O)N1CCCC1=O)c1ncc(Cl)c(Cl)c1Cl | 0.2
Cc1csc2nc(SCC(=O)N3CCN(c4ccccc4)CC3)[nH]c(=O)c12 | -3.0
CCOC(=O)C[C@H]1c2ccccc2S(=O)(=O)N1Cc1ccc(Cl)cc1 | -1.8
COCCCNC(=O)CCCOc1ccccc1 | 0.9
Cn1cc(Br)c(-c2cccc(NC(=O)CC(C)(C)CC(=O)O)c2)n1 | 1.0
Cc1ccc(C2=NS(=O)(=O)N(C)C(C(=O)N(C)C3CCCCC3)=C2)cc1 | 1.4
COc1cccc(/C=N/NC(=O)C(=O)N2CCCC2)c1 | -0.1
Cc1nc(-c2ccc(S(=O)(=O)NCc3ccccn3)s2)cs1 | -0.2
COc1ccc(NC(=O)C2CCCN(S(=O)(=O)c3ccc(C)cc3)C2)cc1OC (configuration not stated) | 3.2
CC1CCN(S(=O)(=O)c2ccc(C(=O)N3CCN(c4ccccc4F)CC3)cc2)CC1 | 0.8
COc1cc(NC(=O)CN2C(=O)c3ccccc3C2=O)c(C(=O)O)cc1OC | -0.8
Cc1cc(Cl)ccc1OCCCC(=O)NCCCn1ccnc1 | 0.0
O=C(c1cccs1)n1nc(-c2ccc(Cl)cc2)nc1NCc1ccco1 | -2.1
OCCC1CN(C/C=C/c2ccco2)CCN1Cc1ccccc1 (configuration not stated) | -1.2
CCCOc1ccc(C(=O)NC(=S)Nc2nc3ccccc3s2)cc1 | -1.9
O=c1sc(Nc2ccccc2)nc2ccsc12 | 3.0
O=C(Nc1ccccc1)N(Cc1cccs1)C1CCCC1 | -1.7
COc1cccc(OCCNc2cc(Cl)ccc2[N+](=O)[O-])c1 | -1.3
O=C1NCCc2c1[nH]c1c(Cl)ccc(Cl)c21 | 11
Cc1cc(S(=O)(=O)NC2CCCC2)ccc1F | -5.6
CC1=C(C)CC(C(=O)Nc2ccc3c(c2)OCO3)C(C(=O)O)C1 (configuration not stated) | -0.3
COc1ccccc1NS(=O)(=O)c1cc(C(=O)NCCN2CCOCC2)ccc1Cl | 2.1
Cc1ccc(CNC(=O)CC(C)S(=O)(=O)c2ccc3c(c2)NC(=O)CO3)cc1 (configuration not stated) | 0.4
CC(C)OP(=O)(OC(C)C)C1(O)C(=O)Nc2ccc(Br)cc21 (configuration not stated) | -0.3
CN(C)CCCN(C(=O)c1ccco1)c1nc(-c2ccc(Cl)cc2)cs1 | 0.7
CCOc1ccc(-n2c(C)nc3cc(C(=O)NCc4ccco4)ccc32)cc1 | 0.3
COc1ccc(C(=O)N=c2sc3c(C)ccc(OC)c3n2C)cc1 | -0.9
O=C(Cc1ccccc1)NS(=O)(=O)c1ccc(N=NN2CCOCC2)cc1 | -1.7
NC(=O)C1CCN(c2ccc(S(=O)(=O)N3CCCCC3)cn2)CC1 | -0.9
CCOC(=O)C1=C(c2ccc(O)cc2)NC(=O)NC1C (configuration not stated) | -1.0
CCOC(=O)N1CCC(NC(=O)C(CC(C)C)NC(=O)C2CCCCC2)CC1 (configuration not stated) | -1.7
